Screening results from PubChem BioAssay.
SARS PLP yeast – inhibitors of SARS-CoV papain-like protease in yeast. S. cerevisiae expressing SARS-CoV PLpro, growth rescue; control for the full effect not named in the record. Potency, µM (doses to about 32.9 µM), inactives show at the top dose activity, positive = growth rescue. 0.19% of 330,000 active. AID 485353; active means well fitted rising curve with a large enough effect; inconclusive means small, poorly fitted or top-dose-only effect; inactive means no such curve, though single readings can be large or run the other way; further: 0% is about no effect; nearly all actives have a fitted effect of over 55% in size; growth read by luminescence after 48 h
StopGo reporter – lowers the luciferase signal of an FMDV 2A StopGo reporter; Potency, µM (top dose mostly 57.9 µM), without a hit: at the highest dose signal change, negative = less light; human cells with a luciferase reporter of 2A StopGo recoding; control for the full effect not named in the record; 1.2% of 410,000 active; AID 1159524; active = well fitted falling curve with a large enough effect; inconclusive = small, poorly fitted or top-dose-only effect; inactive = no such curve, though single readings can be large or run the other way; tested in HEK293T cells; further: on the % scale 0 is the no-effect control and ±100 the full control effect; nearly all actives have a fitted effect of over 45% in size; luciferase light after 4 h
RE007 growth inh – less growth of the S. pombe RE007 Vpr strain; AID 651644; Potency, µM (titrated, usually from 92.2 µM), for inactives: at the highest dose activity change, negative = less growth; S. pombe RE007 Vpr strain, BacTiter-Glo ATP luminescence, 24 h; control for the full effect not named in the record; 0.21% of 360,000 active; active = well fitted falling curve with a large enough effect; inconclusive = small, poorly fitted or top-dose-only effect; inactive = no such curve, though single readings can be large or run the other way;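 further: on the % scale 0 is the no-effect control and ±100 the full control effect; nearly all actives have a fitted effect of over 50% in size; the assay follows cell death caused by Vpr and the record does not say whether a fall means rescue or toxicity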
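Fission yeast RE007 carrying one integrated HIV-1 vpr copy, seeded at OD 0.01 in PMG+AL medium with 23 nL pinned compound. Grown 24 h at 30 degrees; viability read by BacTiter-Glo luminescence after 5 min.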
Cruzain inh noDet – inhibitors of Trypanosoma cruzi cruzain without detergent. P25779. purified cruzain, Z-FR-AMC fluorescence, no detergent. Potency, µM, for the others: max response, negative = inhibition, usual class: inhibitors. 2.3% of 200,000 active. AID 1476;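 further: plate controls were enzyme without inhibitor for no effect and buffer without enzyme for full effect; nearly all actives have a fitted effect of over 40% in size; top concentration of the series not given in the record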
Target sequence (P25779 123-467 limits assumed): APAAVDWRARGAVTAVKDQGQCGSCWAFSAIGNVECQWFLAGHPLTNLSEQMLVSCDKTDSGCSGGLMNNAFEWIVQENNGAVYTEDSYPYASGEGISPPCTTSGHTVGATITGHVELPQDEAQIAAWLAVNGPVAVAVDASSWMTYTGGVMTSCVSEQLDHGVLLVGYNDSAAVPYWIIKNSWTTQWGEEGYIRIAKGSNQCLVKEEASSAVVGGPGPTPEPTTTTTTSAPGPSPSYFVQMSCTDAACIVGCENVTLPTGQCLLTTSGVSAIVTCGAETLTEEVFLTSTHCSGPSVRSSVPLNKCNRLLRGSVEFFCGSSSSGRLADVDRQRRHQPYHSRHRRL
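Detergent-free condition (0.00005% Triton X-100) in acetate buffer pH 5.5 with DTT. 1.5 nM enzyme and compound were pre-mixed 15 min, then 2 uM Z-FR-AMC substrate added; reaction progress from fluorescence change between first and third reads (60 s).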
Marburg entry inh – inhibitors of Marburg virus binding or cell entry; Marburg virus pseudotyped entry inhibition, cell reporter; control for the full effect not named in the record; about a third of the inactives were read at about 46 µM; Potency, µM (series often up to 37.8 µM), inactives show at the top dose activity change, negative = inhibition, actives largely listed as inhibitors; 1.8% of 300,000 active; active = well fitted inhibition curve with a large enough effect; inconclusive = small, poorly fitted or top-dose-only effect, or effect the other way; inactive = flat fitted curve, though single readings scatter; tested in HEK293 cells; about a fifth of its hits are not listed in these tables; further: on the % scale 0 is the no-effect control and ±100 the full control effect; luciferase read-out
NS1 inh – influenza NS1 inhibition; S. cerevisiae slowed by influenza A NS1, growth recovery by OD600; Potency, µM (top dose mostly 46.1 µM), inactives show at the top dose activity, positive = more growth; 0.4% of 270,000 active; AID 2326; active means well fitted rising curve with a large enough effect; inconclusive means small, poorly fitted or top-dose-only effect; inactive means no such curve, though single readings can be large or run the other way; further: nearly all actives have a fitted effect of over 50% in size
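In this qHTS, NS1 from influenza A is expressed in budding yeast, where it slows growth. Cells are switched from glucose to 2% galactose medium (pH 6.0, -URA), treated with compound, and growth recovery is read at OD600.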
Lassa entry inh – blocks Lassa virus binding to or entry into cells | Lassa virus pseudotype entry inhibition, cell reporter; control for the full effect not named in the record | Potency, µM (titrated, usually from 37.9 µM), without a hit: at the highest dose activity change, negative = inhibition, most hits filed as inhibitors | 1.2% of 300,000 active; active means well fitted inhibition curve with a large enough effect; inconclusive means small, poorly fitted or top-dose-only effect, or effect the other way; inactive means flat fitted curve, though single readings scatter; tested in HEK293 cells; further: on the % scale 0 is the no-effect control and ±100 the full control effect; nearly all actives have a fitted effect of over 50% in size; luciferase read-out
Cruzain inh Det – inhibitors of Trypanosoma cruzi cruzain with detergent | P25779 | purified cruzain, Z-FR-AMC fluorescence, 0.01% Triton | Potency, µM, for inactives: max response, negative = inhibition, hits mostly inhibitors | 0.43% of 200,000 active;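 further: plate controls were neutral wells for no effect and buffer without enzyme for full effect; nearly all actives have a fitted effect of over 40% in size; top concentration of the series not given in the record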
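Enzyme 1.5 nM, Z-FR-AMC 2 uM, NaOAc 100 mM pH 5.5, DTT 5 mM, Triton X-100 0.01%; 15 min RT compound preincubation; kinetic ex360/em450, 60 s delta.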
Active calls of the source: *; ? = inconclusive; · = not tested or not shown; [ ] = remark or other dose. Unless noted, the call rests on the fitted dose curve; in most records, active means well fitted curve in the direction sought with a large enough effect; inconclusive means small, poorly fitted or top-dose-only effect, or another doubt; inactive means no such curve, though single readings can be large; an effect the other way counts as inactive or inconclusive. Potency means the concentration at half of the fitted maximal effect. Compounds as they come, and some 4.8% of all compounds hit somewhere here.

SMILES	SARS PLP yeast	StopGo reporter	RE007 growth inh	Cruzain inh noDet	Marburg entry inh	NS1 inh	Lassa entry inh	Cruzain inh Det
CC(C)CN1C(=O)C(NC(=O)C2CC2)(C(F)(F)F)C2=C1CC(C)(C)CC2=O (stereo not drawn)	-5%	-6%	-13%	17%	4%	3%	-16%	-1.3%
CCOCCCn1c(SCC(=O)Nc2ccccc2)nc2ccccc2c1=O	0%	-20%	3%	·	-20%	-32%	?	·
COC(=O)c1ccc(Sc2ccccn2)c([N+](=O)[O-])c1	-10%	-14%	-16%	-10%	-1%	6%	2%	-4.0%
Cc1c(C(=O)N(C)C)sc2c1c(=O)n(-c1ccc(F)cc1)c(=O)n2Cc1ccccc1C#N	·	-14%	·	-4%	·	·	20%[46.1 µM]	2.5%
COc1cc(C(C)=O)ccc1OCC(O)CNCC(O)c1ccccc1 (stereo not drawn)	2%	?	4%	·	·	0%	·	·
CC(OCCN(C)C)C(=O)C12CC3CC(CC(C3)C1)C2 (stereo not drawn)	0%	-12%	-3%	·	·	0%	·	·
O=C1c2ccccc2C(=O)N1CCN1CCc2ccccc21	-6%	45%[activator]	0%	-22%	12%	-12%	?	1.6%
CCn1c(=O)cc(SCC(=O)NCCc2ccc(OC)cc2OC)c2ccccc21	·	-8%	·	6%	-16%[46.1 µM]	·	-27%[46.1 µM]	-0.4%
CCOc1cc(C(=O)N(CC)CC(=O)Nc2c(F)cccc2F)ccc1OCC(=O)N1CCOCC1	0%	-22%	-24%	·	?	·	-2%	·
Cc1ccc(-n2c(SCC(=O)N/N=C/c3ccccc3C(=O)O)nnc2-c2ccccc2)cc1	-6%	-15%	9%	·	-2%[46.1 µM]	12%	2%	·
COc1ccc(C2C(C(C)=O)=C(C)N=c3s/c(=C/c4ccc5c(c4)OCO5)c(=O)n32)cc1 (stereo not drawn)	-7%	·	·	10µM*	·	-7%	·	-5.5%
O=C(NCc1ccco1)c1nc(-c2ccc(F)cc2)no1	1%	54%[activator]	-19%	·	?	·	?	·
O=C(NN1CCOCC1)c1cccc(Br)c1	·	-18%	-2%	·	-3%[46.1 µM]	·	21%	·
Cc1nnc(SCC(=O)Nc2ccc([N+](=O)[O-])cc2)n1CC1CCCO1 (stereo not drawn)	1%	38%[activator]	-22%	·	0%	2%	3%	·
CCCCC(=O)Nc1cccc(-c2nc3ccccc3s2)c1	·	31%[activator]	·	-5%	?	·	?	-14%
CCOC(=O)Cn1c(=O)n(Cc2ccco2)c(=O)c2ccc(C(=O)NC3CCCC3)cc21	-3%	-13%	-10%	-3%	0%	-4%	·	2.6%
O=C(O)CC(Cc1ccc(Cl)cc1)C(=O)Nc1cc(Cl)ccc1Cl (stereo not drawn)	6%	7%	2%	·	22%[46.1 µM]	3%	16%[46.1 µM]	·
O=C(NC(=S)Nc1cccc2cnccc12)c1ccccc1	-1%	13%	-20%	·	?	7%	6%[46.1 µM]	·
Cc1ccc(C(O)(C(=O)NNc2ccccn2)c2ccc(C)cc2)cc1	1%	-18%	-3%	·	-6%[46.1 µM]	0%	-9%	·
COc1cc(/C=C2\SC(=S)N(CCC(=O)NCCc3ccccc3)C2=O)cc(OC)c1OC	0%	-2%	3%	·	6%[46.1 µM]	-11%	-9%	·
Cc1cccc(N2C(=O)CC(N3CCN(C(=O)c4ccccc4)CC3)C2=O)c1 (stereo not drawn)	-21%	2%	-14%	2%	0%	-10%	-6%	6.7%
Cn1ccnc1Sc1nc2ccccc2nc1NS(=O)(=O)c1ccccc1	15%	39%[activator]	0%	?	2%	3%	-9%	-4.5%
COC(=O)N/N=C(\CCC(=O)O)c1cccs1	0%	-16%	-10%	·	18%	1%	2%	·
O=C(CN1CCCC1)Nc1cc(C(F)(F)F)ccc1Cl	5%	-7%	11%	·	·	·	-13%	·
C=CCOc1ccc(C(=O)Nc2ccccc2C(=O)NCc2cccnc2)cc1	-7%	7%	-23%	·	-24%[46.1 µM]	4%	?	·
C[C@@H]1CCC(=O)N(C[C@@H](C)CSc2ccccc2)CC1	10%	5%	10%	·	·	-20%	·	·
O=C(O)C1CC=CCC1C(=O)Nc1ccc(N2CCN(Cc3ccccc3)CC2)cc1 (stereo not drawn)	8%	-13%	10%	-3%	?	?	3%	-0.2%
COc1cccc(NC(=O)/C(C#N)=C/c2ccc(-c3ccc(C)cc3)o2)c1	·	-13%	·	?	·	·	9%[46.1 µM]	-5.5%
CC(=O)NN1C(=O)c2ccc(Oc3ccc([N+](=O)[O-])cc3)cc2C1=O	-1%	·	14%	-1%	-1%	10%	11%	-0.9%
NS(=O)(=O)c1ccc(NC(=O)c2cccc(Cl)c2)cc1	0%	3%	-4%	·	-3%	3%	23%	·
COc1ccccc1N1CCN(Cc2ccc(Br)o2)CC1	8%	3%	-15%	-4%	-1%	5%	0%	1.5%
CC(NC(=O)c1ccc(N(C)C)cc1)c1ccc(F)cc1 (stereo not drawn)	0%	1%	0%	·	21%[46.1 µM]	·	4%[46.1 µM]	·
CCCC(=O)N1CCN(Cc2nc3cc([N+](=O)[O-])ccc3n2C)CC1	-2%	-5%	11%	·	·	8%	·	·
COc1ccc(OC)c(NC(=O)COC(=O)c2ccc(-n3cnnn3)cc2)c1	0%	0%	11%	-6%	0%	6%	-1%	3.0%
O=Cc1[nH]c2ccccc2c1N(C(=O)CCl)c1ccccc1	-2%	?	3%	·	?	-4%	-8%	·
COc1cccc(-n2c(=O)n(Cc3ccccc3)c(=O)c3[nH]cnc32)c1C	-3%	12%	12%	·	10%[46.1 µM]	-5%	-3%	·
COc1cccc(-c2noc(-c3cccnc3)n2)c1	5%	26%	9%	0%	?	-19%	?	0.1%
COc1ccc(NS(=O)(=O)c2ccc3c(c2)NC(=O)CO3)c(OC)c1	2%	-3%	2%	·	·	4%	·	·
O=C(Nc1ccc(S(=O)(=O)Nc2ccccn2)cc1)C(F)(F)F	-5%	0%	-6%	·	2%[46.1 µM]	·	21%	·
O=C(Nc1ccc(CN2CCOCC2)cc1)c1ccco1	-2%	-12%	-9%	·	?	10%	?	·
COc1ccc(NC(=O)CSc2nnc(-c3cc(C)[nH]n3)n2N)cc1	20%	-3%	13%	·	11%[46.1 µM]	-5%	16%[46.1 µM]	·
CC1CCc2c(sc(NC(=O)CCCOc3ccccc3)c2C(N)=O)C1 (stereo not drawn)	·	-19%	·	-13%	10%[46.1 µM]	·	-8%[46.1 µM]	-9.8%
CCOC(=O)c1c(Nc2cccc(O)c2)nnc(-c2ccccc2)c1-c1ccccc1	·	-9%	·	6%	-18%[46.1 µM]	·	?	-12%
Cc1ccc(Nc2n[nH]c(C)c2[N+](=O)[O-])c(C)c1	-31%	46%[activator]	3%	3%	5%	-19%	6%	-5.8%
COC(=O)c1ccc(NC(=S)N2CCN(Cc3ccccc3)CC2)cc1	-2%	-25%	?	-4%	0%	-43%	-17%	2.0%
O=C(c1cnn2ccccc12)N1CCCc2ccccc21	4%	-14%	-10%	-3%	1%	-15%	·	-0.2%
CCC(=O)N1CCCc2cc(S(=O)(=O)N3CCC(C(=O)NC4CCCCC4)CC3)ccc21	·	-16%	·	1%	·	·	-20%[46.1 µM]	0.0%
CCCOc1ccc(C(O)(CCN2CCCCC2)c2ccccc2OC)cc1 (stereo not drawn)	0%	?	-7%	·	·	-4%	·	·
O=C(NC1CC1)c1sc2cc([N+](=O)[O-])ccc2c1Cl	-28%	8%	?	-1%	-3%	12%	3%	-8.4%
Cc1nn(-c2ccccc2)c2c1N(CC(=O)N1CCN(c3ccc(F)cc3)CC1)C(=O)CS2	·	-3%	·	-8%	·	·	-11%[46.1 µM]	-2.6%
Cc1ccc(-n2c(N)c(S(=O)(=O)c3ccccc3)c3nc4ccccc4nc32)cc1	2%	-1%	-6%	·	3%[46.1 µM]	·	9%	·
CC(CC(C)C(=O)Nc1ccccc1C(C)(C)C)C(=O)O (stereo not drawn)	28%	-22%	-2%	?	-9%	3%	4%	-2.0%
CCCNC(=O)c1cc(-c2ccco2)on1	-20%	48%[activator]	1%	-15%	15%	-5%	?	-2.6%
COc1cccc(NC(=O)C2CCCN(c3nnc(-n4c(C)ccc4C)s3)C2)c1 (stereo not drawn)	·	0%	·	-1%	3%[46.1 µM]	·	6%[46.1 µM]	-3.6%
O=C(c1ccccc1)c1cccs1	6%	-5%	3%	·	10%[46.1 µM]	·	0%[46.1 µM]	·
COc1ccc(-c2cc(=Nc3ccccc3)c3cc(C)ccc3o2)cc1	-65%	59%[activator]	?	-1%	?	-46%	-5%	-11%
Cc1ccc2c(C)nc(Nc3nc(CSc4nnc(C)s4)cc(=O)[nH]3)nc2c1	-2%	-8%	-1%	?	-4%	10%	-2%	-1.4%
Cc1cccc(CC(=O)Nc2ccon2)c1	-3%	-4%	2%	·	-6%[46.1 µM]	5%	9%[46.1 µM]	·
Cc1nc2ncnn2c(C)c1C/C=C/c1ccccc1	2%	-22%	20%	·	-13%[46.1 µM]	·	0%	·
COc1ccc(Cl)cc1NC(=O)CC1S/C(=N/N=C2CCCCCC2)NC1=O (stereo not drawn)	-3%	-17%	-9%	·	·	?	·	·

Later entries
SMILES	SARS PLP yeast	StopGo reporter	RE007 growth inh	Cruzain inh noDet	Marburg entry inh	NS1 inh	Lassa entry inh	Cruzain inh Det
N#CCSc1nnc(N)s1	4%	-14%	3%	-10%	-10%	-5%	6%	-3.4%
Cc1ccc(C(=O)CSc2nnnn2Cc2ccccc2)cc1C	-4%	-2%	-2%	·	?	-3%	?	·
COC(=O)CCC(=O)Nc1ccc(NC(=O)CCC(=O)OC)cc1	2%	12%	2%	-20%	0%	6%	3%	-6.3%
O=c1oc2ccccc2c2c1ncn2C1CCCCC1	4%	-19%	10%	0%	-10%	-16%	-2%	-2.8%

2 entries picked at random from the list so far:
SMILES	SARS PLP yeast	StopGo reporter	RE007 growth inh	Cruzain inh noDet	Marburg entry inh	NS1 inh	Lassa entry inh	Cruzain inh Det
Cc1nc2ncnn2c(C)c1C/C=C/c1ccccc1	2%	-22%	20%	·	-13%[46.1 µM]	·	0%	·
COc1ccc(-c2cc(=Nc3ccccc3)c3cc(C)ccc3o2)cc1	-65%	59%[activator]	?	-1%	?	-46%	-5%	-11%
